UCH37 inh: human UCH37 deubiquitinating enzyme inhibition | purified proteasome/UCH37, Ub-AMC cleavage fluorescence | AID 588478 | 330,000 compounds, 0.33% hits | inhibition, % (test concentration not listed) | Q9Y5K5;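 active = mean of two replicates above 20%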;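 also: 0% = compound-free wells with enzyme and 100% = wells lacking proteasome; stock transfer was 100 nL into about 20 µL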
Target sequence (Q9Y5K5 whole entry, looked up): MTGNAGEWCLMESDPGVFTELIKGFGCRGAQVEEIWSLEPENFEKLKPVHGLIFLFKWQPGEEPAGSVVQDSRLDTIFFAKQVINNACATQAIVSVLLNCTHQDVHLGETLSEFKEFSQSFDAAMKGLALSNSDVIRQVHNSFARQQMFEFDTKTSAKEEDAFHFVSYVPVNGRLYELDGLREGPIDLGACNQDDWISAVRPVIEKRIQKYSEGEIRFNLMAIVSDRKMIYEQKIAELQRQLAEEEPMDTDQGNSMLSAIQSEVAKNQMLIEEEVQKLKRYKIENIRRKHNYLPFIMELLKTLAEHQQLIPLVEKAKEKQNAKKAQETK
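Material: human UCH37 enzyme supplied as purified proteasome complex / Amount: 0.15 nM proteasome as dispensed / Buffer or medium: pH 7.4 Tris-HCl (50 mM) with ovalbumin, ATP-MgCl2, DTT / Times: preincubation 30 min, reaction 25 min, room temperature / Technique: AMC fluorescence from Ub-AMC cleavage, excitation 355 nm, emission 460 nm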
AF4-AF9 inh: blocks AF4 peptide binding to human AF9; AlphaScreen, biotin-AF4 peptide binding to FLAG-AF9; inhibition, % at 10 µM; 350,000 compounds, 0.47% hits; AID 651704;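 active = every replicate reaching a set inhibition limit, whatever the replicate mean, cut at about 25% in these data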;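 also: 0% = plate neutral control median and 100% = total signal loss; the record names both 10 and 1 µM as test concentration; the first replicate is given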
Target sequence (P42568 whole entry, looked up): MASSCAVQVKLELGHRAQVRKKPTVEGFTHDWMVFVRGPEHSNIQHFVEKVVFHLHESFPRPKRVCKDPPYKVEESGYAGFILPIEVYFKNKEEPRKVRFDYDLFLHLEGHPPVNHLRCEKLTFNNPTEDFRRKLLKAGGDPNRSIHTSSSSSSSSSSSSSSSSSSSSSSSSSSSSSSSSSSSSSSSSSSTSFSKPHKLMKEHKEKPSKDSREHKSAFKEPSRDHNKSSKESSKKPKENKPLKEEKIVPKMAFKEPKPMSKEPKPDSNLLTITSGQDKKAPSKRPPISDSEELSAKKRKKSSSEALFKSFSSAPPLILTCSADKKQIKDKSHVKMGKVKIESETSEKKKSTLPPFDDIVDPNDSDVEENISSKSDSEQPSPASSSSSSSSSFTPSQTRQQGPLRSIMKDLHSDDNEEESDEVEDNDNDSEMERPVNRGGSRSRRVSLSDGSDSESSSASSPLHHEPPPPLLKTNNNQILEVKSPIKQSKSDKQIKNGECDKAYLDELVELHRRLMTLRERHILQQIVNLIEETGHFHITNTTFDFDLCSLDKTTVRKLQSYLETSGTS
Ecoli growth: inhibitors of Escherichia coli growth; OD600, 23 h; active compounds read low; OD600 absorbance (test concentration not listed); 330,000 compounds, 0.21% hits; AID 1053175;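 active = OD600 absorbance below the run mean of sample wells minus 3.6 SD, in any replicate, cut at about 0.56 in these data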;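 also: stock transfer was 300 nL into about 60 µL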
Beta cell apopt: blocks beta cell apoptosis; INS-1E cytokine-induced death, ATP luminescence, 48 h; percent of positive-control rescue, neutral wells zero; protection from apoptosis, % (no concentration beside the values); 300,000 compounds, 0.8% hits; AID 435005;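 active = all replicates at 75% or more, or half of them and the mean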;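 also: 0% = cytokine-treated negative control wells and 100% = positive control rescue; higher means more ATP so stronger rescue from cytokine killing; wells of about 40 µL received 100 nL stock; the first replicate is given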
FGF22 binding: FGF22 (human) thermal shift binding | Q9HCT0 | recombinant FGF22 thermal shift, SYPRO orange fluorescence; percent of sucrose octasulfate shift, DMSO zero | calls only at 9.99 µM | 340,000 compounds, 1.5% hits | AID 651658;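 active = melting point raised past a set limit in the mean and every replicate; three in four hits are not shown here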
Target sequence (Q9HCT0 whole entry, looked up): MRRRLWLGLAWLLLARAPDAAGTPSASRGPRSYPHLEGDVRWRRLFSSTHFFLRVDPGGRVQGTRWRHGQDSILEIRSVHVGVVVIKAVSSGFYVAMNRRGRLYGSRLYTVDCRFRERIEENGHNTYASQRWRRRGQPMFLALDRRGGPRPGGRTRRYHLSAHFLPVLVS
Bfl-1 A1 inh: inhibitors of the anti-apoptotic protein A1, read as caspase activation. MEF A1-2A-BIM cells, Caspase-Glo 3/7 luminescence, 3 h; percent of clofoctol response, vehicle zero. caspase activation, % (no concentration beside the values). 330,000 compounds, 0.066% hits. AID 2462;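 active = over half of replicate activation scores above 10%, or exactly half above 10 with the replicate mean above 10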;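 also: wells of about 30 µL received 50 nL stock; many hits fall short of the cut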
T cruzi repl: T. cruzi replication inhibition; 300,000 compounds, 1.4% hits; T. cruzi beta-gal in NIH3T3, luminescence, 90 h; AID 1885; inhibition, % (test concentration not listed);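 active = mean inhibition across valid replicates above about 55%, limit read from the data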;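 also: signal also drops with host cell toxicity which is not excluded here; 0% = plate median of DMSO wells and 100% = zero luminescence signal; higher percent means less beta-gal luminescence so fewer parasites; stock transfer was 50 nL into about 50 µL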
rRNA inh HTS: inhibits bacterial ribosomal RNA function over humanized ribosomes; E. coli WT GFP vs humanized-ribosome RFP mutants, fluorescence, 24 h; active compounds read low; DMSO median 0, no signal -100; GFP signal change (wild-type ribosome), % (test concentration not listed); 350,000 compounds, 1.6% hits; AID 720706;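 active = significant combined selectivity score with lowered wild-type GFP, culture density cut under 30%, mutant RFP and density less affected; inactive = any of these conditions unmet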; also: one replicate is shown; some compounds called inactive have numbers as strong as hits
rRNA inh HTS OD600: further read-out of rRNA inh HTS, marked with its call; OD600 change, %; measured here: OD600 growth;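 optical density of the mix in the first replicate; 0 = DMSO median and -100 = no signal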
rRNA inh HTS RFP: second read-out of rRNA inh HTS, no call of its own (marks repeat the call); RFP signal change, %; measured here: RFP humanized mutant strains;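 first replicate; 0 = DMSO median and -100 = no signal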
Active calls of the source: *; i = inactive; . = not tested or not shown; + = active, no number. Some of the compounds tested. The share of hits here may be higher or lower than overall.

SMILES | UCH37 inh | AF4-AF9 inh | Ecoli growth | Beta cell apopt | FGF22 binding | Bfl-1 A1 inh | T cruzi repl | rRNA inh HTS | rRNA inh HTS OD600 | rRNA inh HTS RFP
Cc1ccc(S(=O)(=O)N2CCN(C(=O)c3ccnn3C)CC2)cc1C | 1.6 | . | 0.7 | . | . | -0.8 | 2 | . | . | .
O=C(/C=C/c1ccc2ccccc2n1)N1CCN(S(=O)(=O)c2ccc(F)cc2)CC1 | 1.8 | 5.5 | 0.67 | -6 | i | 0.2 | 4 | -20 | 1 | 17
Cc1ccc(C)c(Cn2c(=O)n(CCCC(=O)NCc3ccco3)c(=O)c3ccccc32)c1 | -1.1 | . | 0.75 | 4 | . | 1.8 | 20 | . | . | .
Cc1ccccc1C(O)c1ccncc1 (stereo not given) | 1.1 | 4.7 | 0.75 | -1 | i | -0.5 | -5 | 12 | -10 | -4.1
O=S(=O)(NC(=S)Nc1ccccc1)c1ccc(F)cc1 | -1.1 | 2.2 | 0.7 | -5 | i | 1.4 | -2 | 5 | -5 | 1.5
CC(C)NC(=O)NC(=O)CSc1nnc(COc2ccccc2F)n1C(C)C1CC2CCC1C2 (stereo not given) | -0.3 | 10 | 0.67 | . | i | . | 42 | 2 | -2 | 0.1
C[C@H]1CCC[C@]2(O[C@@H](CCO)C[C@@H](O)[C@@H]2O)O1 | -1.7 | 2.4 | . | -5 | i | -0.2 | -18 | 9 | 8 | 10
COc1ccc(N2CCN(C(=S)Nc3ccc(C)cc3C)CC2)cc1 | 3.3 | -0.3 | 0.69 | 1 | i | 0.6 | -3 | 5 | -3 | -0.6
COc1ccccc1N1CCN(C2CCCN(Cc3ccccc3OCCO)C2)CC1 (stereo not given) | 2.6 | 4.0 | 0.73 | . | i | 1.0 | -9 | 7 | 12 | -2.1
O=C(c1ccccc1)N1CCN(c2ccc(NCc3ccc4c(c3)OCO4)cc2)CC1 | 3.2 | 17 | 0.74 | 8 | i | -0.2 | 1 | -4 | 0 | 2.2
CC1CCC2(CC1)SCC(=O)N2c1ccccc1 (stereo not given) | -0.8 | . | 0.73 | 7 | . | -0.5 | 9 | . | . | .
O=C(N/N=C/c1ccccc1C(=O)O)c1cccc(S(=O)(=O)Nc2cc(Cl)ccc2Cl)c1 | . | -0.9 | . | -7 | i | 1.5 | -4 | -19* | -13* | 5.9*
Cc1ccc(C)c(C(=O)CCC(=O)OCn2nnc3ccccc3c2=O)c1 | 2.2 | -0.5 | 0.69 | -7 | i | -0.7 | . | . | . | .
CC1(C)C(=O)C2(CCCCC2)C(=O)OC1c1cccc([N+](=O)[O-])c1 (stereo not given) | 3.0 | 0.8 | 0.67 | -2 | . | 0.1 | -4 | 14 | 9 | 0.4
COCCNC(=S)Nc1ccc(S(=O)(=O)Nc2ncccn2)cc1 | 0.9 | 1.7 | 0.69 | -7 | i | 0.8 | -1 | 9 | 5 | 0.7
OCCCc1nc2n(n1)C(c1ccccc1)C=C(c1ccccc1)N2 (stereo not given) | -91 | . | 0.76 | -6 | . | 0.5 | 7 | . | . | .
COc1ccc(S(=O)(=O)N2CCCCCC2)cc1C(=O)N(C)Cc1ccc(C(C)(C)C)cc1 | . | 1.7 | . | 22 | i | -0.6 | 28 | -24 | -28 | -1.2
CCc1ccccc1NC(=O)CN(C)S(=O)(=O)c1ccc2c(c1)c(=O)n(C)c(=O)n2C | 2.3 | -6.5 | 0.72 | 1 | i | 0.6 | -4 | 10 | 15 | -1.8
CCc1nnc(NC(=O)CSc2nnc3c(C)cc4c(C)ccc(C)c4n23)s1 | 2.3 | 0.1 | 0.69 | 4 | i | 0.1 | -23 | . | . | .
O=C(Nc1cccc(S(=O)(=O)N2CCCCC2)c1)c1ccc([N+](=O)[O-])o1 | 5.2 | 11 | 0.65 | -11 | i | 0.2 | 40 | -28* | 2.8* | -6.2*
Cc1onc(-c2c(Cl)cccc2Cl)c1C(=O)Nc1ccc(C(N)=O)cc1 | 5.5 | 5.1 | 0.65 | -3 | i | 0.3 | -2 | . | . | .
Cc1ccc(NC(=O)C(C)Sc2nnc3ccccn23)cc1 (stereo not given) | -2.8 | -1.2 | 0.66 | -3 | i | -0.2 | . | 6 | 17 | -0.8
Cc1cccc(C(=O)Nc2cccc(C(=O)N/N=C/c3ccccn3)c2)c1 | . | -0.5 | . | . | i | 0.3 | -4 | -19 | -14 | -2.5
COc1cccc(CNC(=O)c2ccccc2NC(=O)C2=C(C)OCCS2)c1 | 1.3 | 3.6 | 0.71 | -4 | i | 0.1 | 9 | 0 | -4 | 1.3
Cc1onc(-c2c(Cl)cccc2Cl)c1C(=O)NN1CCCCCC1 | 1.3 | 8.7 | 0.7 | . | i | 0.5 | -10 | -13* | 11* | -0.9*
Continuation:
SMILES | UCH37 inh | AF4-AF9 inh | Ecoli growth | Beta cell apopt | FGF22 binding | Bfl-1 A1 inh | T cruzi repl | rRNA inh HTS | rRNA inh HTS OD600 | rRNA inh HTS RFP
O=[N+]([O-])c1ccc(Cl)c(NC(=S)N2CCCC2)c1 | 3.3 | 3.6 | 0.69 | 0 | i | -0.5 | -2 | -5 | 22 | -2.7
Cc1ccc(NC(=O)c2ccc(S(=O)(=O)N(C)c3ccccc3)cc2)cc1S(=O)(=O)N1CCOCC1 | -0.4 | 2.0 | 0.7 | . | i | . | . | 13 | 11 | 0.5
COc1ccccc1NS(=O)(=O)c1ccc2[nH]c(=O)[nH]c2c1 | 1.6 | 0.7 | 0.63 | 0 | i | 0.4 | 4 | 17 | 8 | 1.5
Cc1ccc(OCC(=O)N2c3ccccc3CC2C)c([N+](=O)[O-])n1 (stereo not given) | 6.7 | -0.8 | 0.72 | -8 | i | 0.0 | -2 | 2 | 1 | 0.6
COc1ccc(NC2CCCN(C(=O)c3cn(C)c4ccccc34)C2)cc1 (stereo not given) | 0.3 | 8.0 | 0.7 | 0 | i | 0.8 | 13 | 2 | 0 | -1.9
CC(=O)Nc1ccc(NC(=O)c2nc(S(=O)(=O)Cc3cccc(C)c3)ncc2Cl)cc1 | . | -2.8 | . | -6 | i | 0.7 | 8 | 6 | 4 | -0.4
Cc1ccc(-c2nc(S(=O)(=O)c3ccc(C)cc3)c(SCC(=O)NCC3CCCO3)o2)cc1 (stereo not given) | 1.3 | 3.9 | 0.69 | 6 | i | 0.3 | 11 | 2 | 1 | -1.4
CCOC(=O)Cn1cnc2c(nnn2-c2cccc(Cl)c2)c1=O | -0.9 | -2.4 | 0.71 | -2 | i | 1.2 | -13 | 10 | 9 | 1.7
Cc1noc(NS(=O)(=O)c2ccc(NC(=O)CSc3nc4c(cc3C#N)CCCC4)cc2)c1C | 4.9 | 2.2 | 0.77 | -5 | . | 0.4 | -5 | -25* | -10* | -9.4*
CCC1(c2ccccc2)NC(=O)N(CC(=O)NCc2ccccc2OC)C1=O (stereo not given) | 6.4 | -7.7 | 0.64 | 1 | i | 1.4 | 5 | 3 | -1 | -2.2
CCNS(=O)(=O)c1ccc(C(=O)OCC(=O)N2CCCc3ccccc32)cc1 | 1.4 | 0.5 | 0.71 | -5 | i | 0.2 | . | -13 | -3 | 0.9
CC(C)(c1ccccc1)c1ccc(OCC2CO2)cc1 (stereo not given) | 1.0 | -0.9 | 0.67 | -3 | i | 0.4 | -9 | -1 | -43 | -2.3
Cc1cccc(C)c1NC(=O)COC(=O)C1CC(=O)N(Cc2ccccc2)C1 (stereo not given) | 1.7 | -11 | 0.69 | -2 | i | 0.9 | -28 | 6 | -13 | -4.0
Cc1ccccc1OCC(O)CNC1CCCC1 (stereo not given) | 1.0 | 2.3 | 0.56 | . | i | -0.5 | -5 | 1 | -3 | -6.4
CCOC(=O)C1C(=O)NC(N2CCCCC2)=NC1C(C)C (stereo not given) | 2.5 | . | 0.69 | -6 | . | 0.2 | -8 | . | . | .
CN(C(=O)COC(=O)C1CCN(S(=O)(=O)c2ccc(Cl)cc2)CC1)C1CCS(=O)(=O)C1 (stereo not given) | -0.9 | -2.7 | 0.73 | -6 | . | -0.5 | . | 14 | 9 | 0.4
COc1cc(/C=C(\C#N)c2nc3ccccc3[nH]2)ccc1O | 5.5 | 3.0 | 0.68 | 12 | + | -13 | -5 | -12 | -32 | -6.0
Fc1ccc(NC(=S)N2CCN(c3ncccn3)CC2)cc1 | 3.1 | -2.4 | 0.68 | -2 | i | 0.7 | -55 | 12 | 22 | 1.4
CN1C(=O)N(CC(=O)Nc2ccc(C(F)(F)F)cc2)C(=O)C12CCCCC2 | 4.4 | 1.5 | 0.68 | . | i | . | . | -1 | 1 | 0.0
CCN(CC)C(=O)c1sc(NC(=O)c2ccc3c(c2)OCO3)c(C(N)=O)c1C | 1.0 | -2.6 | 0.68 | -7 | i | -1.3 | 19 | -2 | -6 | -1.0
COc1ccc(C2CC(c3c(O)cc(C)oc3=O)=NCCS2)c(OC)c1 (stereo not given) | 8.6 | -1.1 | 0.74 | . | . | 3.0 | . | . | . | .
O=c1c([N+](=O)[O-])c(N2CCCCC2)c2ccccc2n1-c1ccccc1 | 0.1 | . | 0.73 | -7 | . | 0.6 | 8 | . | . | .
CCN1CCN(CCNC(=O)CS(=O)(=O)Cc2nc(-c3ccc(C)cc3)oc2C)CC1 | 0.7 | -0.2 | 0.75 | -3 | i | . | -21 | -5 | -4 | 2.9
Cc1ccnc(SCc2cc(=O)c(OC(=O)c3ccc(S(=O)(=O)N4CCCC4)cc3)co2)n1 | 5.0 | 4.2 | 0.64 | -4 | i | 0.1 | -27 | 11 | -1 | -1.4
O=S(=O)(c1ccc(SCc2ccc(Br)cc2)nc1)N1CCCCC1 | -2.6 | -0.2 | 0.65 | . | i | . | . | -7 | -4 | -4.2
COc1ccc(-c2csc(-n3ncc(-c4ccccn4)c3N)n2)cc1 | -0.6 | -2.8 | 0.7 | 2 | i | 0.6 | 3 | 9 | 5 | -5.8
CC1CN(S(=O)(=O)c2cccc(C(=O)N(Cc3nnc(-c4ccccc4Cl)o3)C3CC3)c2)CC(C)O1 (stereo not given) | 4.9 | -2.7 | 0.64 | 10 | i | 0.1 | 19 | -4 | -13 | -2.5
CC(Cc1ccccc1)C(=O)NCc1nc2ccccc2s1 (stereo not given) | 0.5 | 4.7 | 0.7 | -5 | i | 0.0 | 0 | -12 | -13 | -2.4
O=C(/C=C/c1cccs1)N1CCOCC1 | 3.3 | -4.8 | 0.64 | . | i | -0.9 | -9 | 19 | 5 | -2.2

Not a retest: an excerpt of the list.
SMILES | UCH37 inh | AF4-AF9 inh | Ecoli growth | Beta cell apopt | FGF22 binding | Bfl-1 A1 inh | T cruzi repl | rRNA inh HTS | rRNA inh HTS OD600 | rRNA inh HTS RFP
CC1CN(S(=O)(=O)c2cccc(C(=O)N(Cc3nnc(-c4ccccc4Cl)o3)C3CC3)c2)CC(C)O1 (stereo not given) | 4.9 | -2.7 | 0.64 | 10 | i | 0.1 | 19 | -4 | -13 | -2.5
CC(Cc1ccccc1)C(=O)NCc1nc2ccccc2s1 (stereo not given) | 0.5 | 4.7 | 0.7 | -5 | i | 0.0 | 0 | -12 | -13 | -2.4
O=C(/C=C/c1cccs1)N1CCOCC1 | 3.3 | -4.8 | 0.64 | . | i | -0.9 | -9 | 19 | 5 | -2.2
